From PubChem
Beta2AR agonist – beta2AR agonists driving receptor internalization, primary screen, cell-based, FAP fluorogen, flow cytometry | response, % (no concentration beside the values) | 0.43% of 340,000 active | Am2.2-beta2AR cells; reference of the scale not given here | Beta-2 adrenergic receptor (Homo sapiens), P07550;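 active means response above a set limit, near 3 SD of response in nonfluorescent compounds, cut at about 42% in these data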;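 further: stock transfer was 100 nL into about 11 µL; a reference agonist was the positive control; negative values mostly stem from fluorescent compounds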
Target sequence (P07550 whole entry, looked up): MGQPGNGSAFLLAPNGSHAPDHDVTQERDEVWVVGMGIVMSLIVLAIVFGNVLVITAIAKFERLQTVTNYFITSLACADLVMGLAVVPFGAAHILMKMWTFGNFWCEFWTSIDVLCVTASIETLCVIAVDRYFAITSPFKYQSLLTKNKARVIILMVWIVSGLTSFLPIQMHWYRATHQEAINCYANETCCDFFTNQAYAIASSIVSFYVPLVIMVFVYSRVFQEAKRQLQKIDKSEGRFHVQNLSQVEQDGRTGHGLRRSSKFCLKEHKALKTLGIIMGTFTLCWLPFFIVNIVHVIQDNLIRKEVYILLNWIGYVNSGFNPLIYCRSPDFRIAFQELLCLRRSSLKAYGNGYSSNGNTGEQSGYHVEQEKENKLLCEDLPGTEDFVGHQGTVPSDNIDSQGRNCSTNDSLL
ALR H2O2 inh – inhibitors of human ALR sulfhydryl oxidase, primary screen, biochemical, H2O2 detection, HRP-luminol luminescence, single point; FAD-linked sulfhydryl oxidase ALR (Homo sapiens), P55789; purified ALR, DTT oxidation; inhibition, % (no concentration beside the values); 3.8% of 290,000 active;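 active means mean and each replicate at 75% or more; inconclusive means only one of the two met; inactive means neither met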;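 further: stock transfer was 7.5 nL into about 7.5 µL; 0% = neutral wells and 100% = wells with inactivated enzyme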
Target sequence (P55789 whole entry, looked up): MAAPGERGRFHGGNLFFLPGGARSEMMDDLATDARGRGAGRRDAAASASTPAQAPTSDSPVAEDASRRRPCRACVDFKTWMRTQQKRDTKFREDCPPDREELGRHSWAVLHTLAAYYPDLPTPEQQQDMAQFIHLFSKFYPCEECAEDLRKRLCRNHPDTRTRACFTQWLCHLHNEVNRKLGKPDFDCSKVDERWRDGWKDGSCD
Calb FLC – C. albicans growth inhibition with fluconazole, primary screen, CaCi-2 strain, Alamar Blue fluorescence | C. albicans CaCi-2 (fluconazole-resistant clinical isolate) + fluconazole, 48 h | growth inhibition, % (concentration not given with the values) | 0.57% of 300,000 active;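 active means most replicates above 75%; inconclusive means exactly half above 75%; inactive means most below 75%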;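 further: all wells also contain fluconazole at 8 µg/ml as a sub-toxic cotreatment; 0% = median of DMSO wells and 100% = median of geldanamycin control wells; wells of about 8 µL received 7.5 nL stock; the first replicate is given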
rRNA inh HTS – reduced GFP signal of wild-type E. coli, primary screen, bacterial rRNA inhibitor project, GFP/RFP fluorescence, OD600, single point | 1.6% of 350,000 active | GFP signal change (wild-type ribosome), % (concentration not given with the values) | E. coli WT GFP vs humanized-ribosome RFP mutants, 24 h; active compounds read low; DMSO median 0, no signal -100;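 active means significant combined selectivity score with lowered wild-type GFP, culture density cut under 30%, mutant RFP and density less affected; inactive means any of these conditions unmet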; further: one replicate is shown; some compounds called inactive have numbers as strong as hits
Bfl-1 A1 inh – caspase 3/7 activation in MEF A1-2A-BIM cells, primary screen, A1 inhibitor project, cell-based, luminescence, HTS; Caspase-Glo 3/7 luminescence, 3 h; percent of clofoctol response, vehicle zero; caspase activation, % (concentration not given with the values); 0.066% of 330,000 active; AID 2462, 2010;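 active means over half of replicate activation scores above 10%, or exactly half above 10 with the replicate mean above 10; inconclusive means replicate mean below 10 yet half the replicates above 10; inactive means over half of replicates below 10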;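 further: wells of about 30 µL received 50 nL stock; many hits fall short of the cut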
LANA-H2A inh – blockers of LANA interaction with H2A/H2B – biochemical, FP readout, HTS, primary screen | AID 2629, 2010 | Protein LANA1 (Human herpesvirus 8 type P (isolate GK18)), Q9QR71 | inhibition, % (concentration not given with the values) | cell-free LANA-H2A/H2B peptide, fluorescence polarization | 0.6% of 320,000 active; in the data active means inhibition mostly above about 10%, no sharp cut-off; inactive means mostly below about 6.7%;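 further: stock transfer was 7.5 nL into about 10 µL; 0% = median of vehicle wells and 100% = median of positive control wells; one replicate is shown; the record names a cut of 25% in any replicate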
Beta apoptosis – inhibitors of cytokine-induced beta cell apoptosis, primary screen, luminescence. INS-1E cytokine-induced death, ATP luminescence, 48 h; percent of positive-control rescue, neutral wells zero. protection from apoptosis, % (no concentration beside the values). 0.8% of 300,000 active. AID 435005, 2010;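 active means all replicates at 75% or more, or half of them and the mean; inconclusive means half reach 75% but not the mean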;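 further: 0% = cytokine-treated negative control wells and 100% = positive control rescue; higher means more ATP so stronger rescue from cytokine killing; wells of about 40 µL received 100 nL stock; the first replicate is given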
T cruzi inh – inhibitors of intracellular T. cruzi growth, primary screen, luminescence, NIH3T3 host cells | T. cruzi beta-gal in NIH3T3, 90 h | 1.4% of 300,000 active | inhibition, % (test concentration not listed);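 active means mean inhibition across valid replicates above about 55%, limit read from the data; inconclusive means mean below that limit but half or more replicates reach it; inactive means mean below it, under half of replicates reach it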;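 further: signal also drops with host cell toxicity which is not excluded here; 0% = plate median of DMSO wells and 100% = zero luminescence signal; higher percent means less beta-gal luminescence so fewer parasites; stock transfer was 50 nL into about 50 µL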
rRNA inh HTS OD600 – recorded beside rRNA inh HTS, whose call it bears; OD600 change, %; measured here: OD600 growth;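 optical density of the mix in the first replicate; 0 = DMSO median and -100 = no signal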
rRNA inh HTS RFP – recorded beside rRNA inh HTS, whose call it bears; RFP signal change, %; measured here: RFP humanized mutant strains;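 first replicate; 0 = DMSO median and -100 = no signal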
* marks the source's active call; other numbers are inactive results. A portion of the library; rates above refer to the full screens.

COc1ccc(S(=O)(=O)N(C)C)cc1NC(=O)CSc1nc(N)cc(N)n1 was read as Beta2AR agonist -3, Calb FLC -6, rRNA inh HTS -1, Bfl-1 A1 inh -0.6, LANA-H2A inh 4.0, Beta apoptosis -12, T cruzi inh -6, rRNA inh HTS OD600 -4 and rRNA inh HTS RFP -1.9.
CC(OC(=O)c1ccc2c(c1)OCCO2)C(=O)NC1CCCCC1C (configuration not stated) was read as Beta2AR agonist 3, ALR H2O2 inh 0, Calb FLC 7, rRNA inh HTS 17, Bfl-1 A1 inh 1.0, LANA-H2A inh 0.6, T cruzi inh -5, rRNA inh HTS OD600 14 and rRNA inh HTS RFP -1.5.
For Cc1ccc(C)c(Cn2cnc3c(nnn3-c3ccc(F)cc3)c2=O)c1 the results were Beta2AR agonist -2, ALR H2O2 inh -1, Calb FLC -40, Bfl-1 A1 inh -0.7, LANA-H2A inh -8.3, Beta apoptosis -2 and T cruzi inh -20.
`CC1(C)CC(=O)c2sc(NC(=O)c3cccs3)nc2C1` gave Beta2AR agonist -3, Calb FLC 13, Bfl-1 A1 inh -12, LANA-H2A inh 1.7, Beta apoptosis 21 and T cruzi inh -3.
For COC(=O)C1=C(C)NC(C)=C(C(=O)OC)C1c1ccc(NC(C)=O)cc1 the results were Beta2AR agonist 0, ALR H2O2 inh -6, Calb FLC 2, rRNA inh HTS 4, Bfl-1 A1 inh 0.3, LANA-H2A inh -8.1, Beta apoptosis -1, T cruzi inh -3, rRNA inh HTS OD600 1 and rRNA inh HTS RFP -1.3.
Cc1c(Cl)cccc1NC(=S)N1CCN(Cc2ccc3c(c2)OCO3)CC1 was read as Beta2AR agonist 8, ALR H2O2 inh 0, Calb FLC -22, rRNA inh HTS 4, Bfl-1 A1 inh -0.7, LANA-H2A inh -1.4, Beta apoptosis -6, T cruzi inh -1, rRNA inh HTS OD600 7 and rRNA inh HTS RFP -0.1.
For COc1cc2cc(C(=O)N3CCOCC3)cc(-c3ccc(C)cc3)c2cc1OC the results were Beta2AR agonist 8, ALR H2O2 inh -6, Calb FLC -6, rRNA inh HTS 8, Bfl-1 A1 inh 1.1, LANA-H2A inh -0.5, Beta apoptosis 101*, T cruzi inh 32, rRNA inh HTS OD600 12 and rRNA inh HTS RFP 3.6.
COc1ccc(CN(CC2CCC(C(=O)O)CC2)C(=S)Nc2ccccc2OC)cc1 (configuration not stated) was read as Beta2AR agonist 8, Calb FLC -3, rRNA inh HTS 11, Bfl-1 A1 inh -0.9, LANA-H2A inh 3.0, Beta apoptosis -2, T cruzi inh 13, rRNA inh HTS OD600 3 and rRNA inh HTS RFP -3.0.
`O=C(OCC(=O)N1CCc2ccccc21)c1cccc(S(=O)(=O)N2CCCc3ccccc32)c1` gave Beta2AR agonist -1, ALR H2O2 inh -15, Calb FLC -5, Bfl-1 A1 inh -0.2, LANA-H2A inh -1.9, Beta apoptosis 4 and T cruzi inh 10.
`CCOc1cc(C(=S)N2CCOCC2)ccc1OC(=O)c1cc(OC)c(OC)c(OC)c1` gave Beta2AR agonist 0, ALR H2O2 inh -13, Calb FLC 3, rRNA inh HTS 21, Bfl-1 A1 inh 0.4, LANA-H2A inh -4.3, Beta apoptosis -4, T cruzi inh 1, rRNA inh HTS OD600 18 and rRNA inh HTS RFP 3.2.
COc1cc(OC)cc(-c2nnc(NC(=O)CCS(=O)(=O)c3ccc(F)cc3)o2)c1 was read as Beta2AR agonist 13, ALR H2O2 inh -6, Calb FLC -6, rRNA inh HTS 7, Bfl-1 A1 inh 0.8, LANA-H2A inh -1.9, Beta apoptosis -3, T cruzi inh -4, rRNA inh HTS OD600 11 and rRNA inh HTS RFP 4.2.
Screening CC(=O)Nc1ccccc1NC(=O)COc1cccc2ccccc12 returned Beta2AR agonist 4, ALR H2O2 inh -7, Calb FLC 1, rRNA inh HTS -19, Bfl-1 A1 inh -0.2, LANA-H2A inh -6.8, Beta apoptosis -4, T cruzi inh 8, rRNA inh HTS OD600 -15 and rRNA inh HTS RFP 1.6.
For CC(=O)N1CCN(c2ccccc2NC(=O)c2cc3ccccc3o2)CC1 the results were Beta2AR agonist 0, ALR H2O2 inh -3, Calb FLC 40, rRNA inh HTS -12, Bfl-1 A1 inh 2.3, LANA-H2A inh -3.3, Beta apoptosis -4, T cruzi inh -10, rRNA inh HTS OD600 -21 and rRNA inh HTS RFP -1.0.
C[C@@H](N)C(=O)NC[C@H]1CC[C@H](C(=O)N[C@@H](Cc2ccccc2)C(=O)O)CC1 was read as Beta2AR agonist -3, ALR H2O2 inh -4, Calb FLC 2, rRNA inh HTS 26, Bfl-1 A1 inh -0.3, LANA-H2A inh 5.0, Beta apoptosis -2, T cruzi inh -9, rRNA inh HTS OD600 23 and rRNA inh HTS RFP 4.0.
O=C(N/N=C/c1cccc([N+](=O)[O-])c1O)C(O)(c1ccccc1)c1ccccc1 was read as Beta2AR agonist 2, ALR H2O2 inh 6, Calb FLC 55, rRNA inh HTS -18*, Bfl-1 A1 inh 0.3, LANA-H2A inh 5.4, T cruzi inh -2, rRNA inh HTS OD600 0.8* and rRNA inh HTS RFP 3.5*.
For CCc1nnc(NC(=O)CCC(=O)NCc2ccccc2OC)s1 the results were Beta2AR agonist 18, ALR H2O2 inh -15, Calb FLC -21, Bfl-1 A1 inh 0.7, LANA-H2A inh -5.0 and T cruzi inh -13.
CN(CC(=O)Nc1ccc(OC(F)(F)F)cc1)C(=O)Cc1cccs1 was read as Beta2AR agonist 1, ALR H2O2 inh -4, rRNA inh HTS -4, Bfl-1 A1 inh -1.0, LANA-H2A inh -0.4, Beta apoptosis -1, rRNA inh HTS OD600 5 and rRNA inh HTS RFP 0.3.
O=C(Nc1ccc(Cl)cc1)/C(=C1\CCCN1)[N+](=O)[O-] was read as Beta2AR agonist -11, ALR H2O2 inh -2, Calb FLC -14, rRNA inh HTS 4, Bfl-1 A1 inh -4.5, LANA-H2A inh -3.0, Beta apoptosis -5, T cruzi inh 5, rRNA inh HTS OD600 -2 and rRNA inh HTS RFP -0.6.
Screening O=C(O)C12CC3CC(C1)CC(n1ncc(NCc4ccccc4)c(Cl)c1=O)(C3)C2 returned Beta2AR agonist 15, ALR H2O2 inh 3, Calb FLC -2, rRNA inh HTS 21, Bfl-1 A1 inh 0.1, LANA-H2A inh -4.2, Beta apoptosis -3, T cruzi inh -4, rRNA inh HTS OD600 8 and rRNA inh HTS RFP 0.0.
`CCC(=O)/C(=C(/O)c1ccccc1)c1nc2ccccc2[nH]1` gave Beta2AR agonist -15, ALR H2O2 inh -18, Calb FLC -8, rRNA inh HTS -5, Bfl-1 A1 inh 0.3, LANA-H2A inh 4.3, Beta apoptosis -5, T cruzi inh 4, rRNA inh HTS OD600 7 and rRNA inh HTS RFP -3.9.
COCCn1nnnc1C(c1ccccc1OC)N1CCc2ccccc2C1 (configuration not stated) was read as Beta2AR agonist -11, ALR H2O2 inh -4, Calb FLC -23, Bfl-1 A1 inh inconclusive, LANA-H2A inh -1.6, Beta apoptosis 4 and T cruzi inh 29.
For Cc1cc(Cn2nc(C(=O)NCc3cccs3)cc2-c2ccccc2)on1 the results were Beta2AR agonist 3, rRNA inh HTS -10, Bfl-1 A1 inh -2.1, LANA-H2A inh 3.5, Beta apoptosis 5, rRNA inh HTS OD600 -13 and rRNA inh HTS RFP -5.7.
For Cc1cc(C(=O)CSc2nc3ccc(Cl)cc3[nH]2)c(C)n1CC1CCCO1 (configuration not stated) the results were Beta2AR agonist 11, ALR H2O2 inh 44, Calb FLC 5, Bfl-1 A1 inh -0.1, LANA-H2A inh -1.0, Beta apoptosis 49 and T cruzi inh -11.
`N#CC1(NC(=O)COC(=O)Cc2n[nH]c(=O)c3ccccc23)CCCCC1` gave Beta2AR agonist 12, ALR H2O2 inh -19, Calb FLC 5, rRNA inh HTS 9, Bfl-1 A1 inh 0.1, LANA-H2A inh -5.0, Beta apoptosis 2, T cruzi inh -2, rRNA inh HTS OD600 3 and rRNA inh HTS RFP -1.3.
`CCCC(=O)Nc1cnc(NC(=O)c2cccc(F)c2)cc1C` gave Beta2AR agonist -6, ALR H2O2 inh -5, Calb FLC 0, Bfl-1 A1 inh -0.1, LANA-H2A inh 3.1, Beta apoptosis 10 and T cruzi inh -1.
Screening Cn1c(=O)c2[nH]c(N/N=C(/C#N)C(N)=O)nc2n(C)c1=O returned ALR H2O2 inh 16, Calb FLC 5, Bfl-1 A1 inh -1.4, LANA-H2A inh -0.3, Beta apoptosis -2 and T cruzi inh 14.
Screening O=C(NNC(=O)C1CCN(C(=O)Nc2ccccc2)CC1)c1ccc([N+](=O)[O-])cc1 returned Beta2AR agonist -3, ALR H2O2 inh -3, rRNA inh HTS 5, Bfl-1 A1 inh 0.1, LANA-H2A inh 1.1, Beta apoptosis -1, rRNA inh HTS OD600 15 and rRNA inh HTS RFP 0.0.
Screening Cc1ccc(N2C(=O)SC(N(CC(=O)O)c3cccc(C)c3)C2=O)cc1 (configuration not stated) returned Beta2AR agonist 8, ALR H2O2 inh 99*, Calb FLC -2, rRNA inh HTS 6, Bfl-1 A1 inh -0.3, LANA-H2A inh 1.5, Beta apoptosis 1, T cruzi inh -28, rRNA inh HTS OD600 -3 and rRNA inh HTS RFP -2.7.
Cc1ccccc1C(=O)NNC(=O)CSc1nnc(C)n1-c1ccccc1 was read as Beta2AR agonist 3, ALR H2O2 inh -6, Calb FLC 1, rRNA inh HTS 4, Bfl-1 A1 inh 1.0, LANA-H2A inh 4.4, Beta apoptosis -7, T cruzi inh 2, rRNA inh HTS OD600 9 and rRNA inh HTS RFP -0.2.
Screening Cc1cc(N)ccc1S(C)(=O)=O returned Beta2AR agonist -6, ALR H2O2 inh 2, Calb FLC -3, Bfl-1 A1 inh 0.3, LANA-H2A inh -3.0, Beta apoptosis -2 and T cruzi inh 6.
COC(=O)C(Cc1ccccc1)N1CCS(=O)(=O)CC1 (configuration not stated) was read as Beta2AR agonist -20, ALR H2O2 inh -18, Calb FLC 1, rRNA inh HTS 8, Bfl-1 A1 inh 1.2, LANA-H2A inh 5.2, Beta apoptosis -1, T cruzi inh -3, rRNA inh HTS OD600 5 and rRNA inh HTS RFP -1.5.
Screening COc1cccc(C(=O)Nc2ccccc2N2CCCC2)c1 returned Beta2AR agonist 2, ALR H2O2 inh 98*, Calb FLC 19, Bfl-1 A1 inh -0.5, LANA-H2A inh -3.7, Beta apoptosis -12 and T cruzi inh -18.
